D2 agonist = human D2 receptor agonism in beta-arrestin assay; 0.084% of 360,000 active; DiscoveRx PathHunter D2 beta-arrestin, luminescence, 90 min; 100% = 57 uM dopamine signal; activation, % (concentration not given with the values); in the data active = activation above about 40%; inconclusive = about 15% to 40%; inactive = below about 15%; note: compound concentration not given in the record; the text of the record calls up to 30% inactive
Target sequence (P14416 whole entry, looked up): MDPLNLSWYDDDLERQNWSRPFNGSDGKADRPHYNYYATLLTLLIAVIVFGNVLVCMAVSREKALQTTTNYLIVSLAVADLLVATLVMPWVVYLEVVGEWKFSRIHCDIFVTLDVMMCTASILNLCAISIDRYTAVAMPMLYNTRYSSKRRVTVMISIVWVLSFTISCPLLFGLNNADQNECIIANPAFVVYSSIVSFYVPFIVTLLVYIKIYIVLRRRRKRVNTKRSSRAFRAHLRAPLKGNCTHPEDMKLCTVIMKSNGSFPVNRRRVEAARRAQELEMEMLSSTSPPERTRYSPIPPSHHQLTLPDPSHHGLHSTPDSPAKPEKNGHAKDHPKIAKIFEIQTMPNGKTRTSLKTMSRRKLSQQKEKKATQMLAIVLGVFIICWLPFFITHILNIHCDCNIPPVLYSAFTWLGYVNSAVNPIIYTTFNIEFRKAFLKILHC
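DiscoveRx PathHunter D2 beta-arrestin cells (2,100/well) attached overnight, then compound-stimulated 90 min at 37 C in HBSS/10 mM HEPES/0.1% Tween-20 buffer; beta-galactosidase complementation read by luminescence after 1 h at ambient temperature. Dopamine 57 uM final (EC100) as control.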
D2 potentiator = potentiates the human D2 dopamine receptor allosterically; DiscoveRx D2 beta-arrestin cells, luminescence, 90 min; 100% = 57 uM dopamine signal; potentiation, % (test concentration not listed); AID 624464; P14416; 0.23% of 360,000 active; active = potentiation of 50% or more; inconclusive = 30% to 50%; inactive = 30% or less;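 note: compound concentration not given in the record; tested on top of an EC20 dose of dopamine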
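PathHunter D2 cells, attached overnight at 37 deg C, received compound in DMSO plus dopamine at EC20 (50 nM final) for 90 min at 37 deg C. Beta-arrestin recruitment was read as luminescence after 1 h with detection reagent at ambient temperature.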
CtBP-E1A inh = blocks the CtBP interaction with E1A; AlphaScreen GST-E1A/His-CtBP binding, 1536-well; stronger effect = lower value; control for the full effect not named in the record; 0.49% of 340,000 active; activity change, % (no concentration beside the values); AID 651724; in the data active means activity change below about -65%; inconclusive means about -30% to -65%; inactive means above about -30%; note: % is set by controls: 0 for no effect and ±100 for the full control effect; compound concentration not given in the record
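In 5 uL wells, 23 nL compound meets equimolar GST-E1A and His-CtBP (5X stock 125 nM each) for 2 h, 37 °C. Beads (5X, 50 ug/mL) then 1 h, 37 °C, dark.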
Sfp inh = inhibitors of Bacillus subtilis Sfp phosphopantetheinyl transferase; Biochemical Sfp PPTase activity, qHTS; Potency, µM, for the others: max response, negative = inhibition, hits mostly inhibitors; 3.5% of 310,000 active; active = well fitted inhibition curve with a large enough effect; inconclusive = small, poorly fitted or top-dose-only effect, or another doubt; inactive = no such curve, though single readings can be large or run the other way;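 note: the enzyme is Sfp with the accession as filed and its product quenches rhodamine fluorescence; potency is the fitted concentration of half-maximal effect; 0% = enzyme reaction without inhibitor and -100% = no enzyme wells; top concentration of the series not given in the record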
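Fluorescence-quenching assay with 15 nM Sfp, 5 uM rhodamine-CoA and 12.5 uM BHQ-2-labelled ybbR peptide in pH 7.6 Hepes/MgCl2 buffer. Enzyme was pre-incubated with compound for 15 min at room temperature. Rate was taken from the 30-min fluorescence change (525/598 nm).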
PINK1 modulator = PINK1 expression modulation | PINK1 immunofluorescence, high-content cytometry, 24 h | Potency, µM (top dose mostly 76.6 µM), inactives show at the highest dose activation (PINK1 increase), hits mostly activators | 0.2% of 410,000 active | AID 624263; active = well fitted activation curve with a large enough effect; inconclusive = small, poorly fitted or top-dose-only effect; inactive = flat fitted curve, though single readings scatter; cell line not stated here;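 note: potency is the fitted concentration of half-maximal effect; % of control where 0% means no effect; nearly all actives have a fitted effect of over 65% in size; a mitochondrial uncoupler was the plate control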
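Cells are seeded, rested 12 hours, then given compound at five concentrations or DMSO for 24 hours. After fixation, blocking and antibody staining, PINK1 amount and mitochondrial localization are scored; CCCP serves as control.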
Six1-Eya2 blk = inhibitors of human Six1/Eya2 interaction; Q15475+O00167; AlphaScreen GST-Six1/His-Eya2 binding, biochemical; stronger effect = lower value; control for the full effect not named in the record; activity change, % (no concentration beside the values); 0.56% of 360,000 active; in the data active = activity change below about -65%; inconclusive = about -30% to -65%; inactive = above about -30%; note: % is set by controls: 0 for no effect and ±100 for the full control effect; compound concentration not given in the record
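GST-Six1 + His-Eya2 (5X stock: 250/500 nM); Tris pH 8.0, 300 mM NaCl, 0.05% BSA, 0.02% Tween 20; GSH donor/Ni acceptor beads; 1 h 37 °C dark; AlphaScreen readout.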
TRPV1 potentiator = enhances activation of the human vanilloid receptor TRPV1. Q8NER1. TRPV1-expressing cells, Fluo-8 calcium influx, capsaicin EC20 potentiation; host cell line not named in the record; control for the full effect not named in the record. potentiation, % at 8.33 µM. 0.02% of 320,000 active; active means potentiation above 80%; inconclusive means 30% to 80%; inactive means below 30%; note: 0% is about no effect
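Fluo-8 calcium influx in TRPV1-expressing cells, kinetic read (ex 480/em 520 nm). Compound added and read 3 min for agonist activity, followed by capsaicin at EC20 final and 2 min further read for enhancement.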
* marks the source's active call; other numbers are inactive results; ? = inconclusive; / = not tested or not shown; & = joins results of further samples; [ ] = another dose, or the depositor's remark.

Values run as follows: CtBP-E1A inh, PINK1 modulator, Sfp inh, D2 potentiator, D2 agonist, Six1-Eya2 blk, TRPV1 potentiator
Cc1cccc(C(=O)NNC(=O)Nc2ccccc2)c1
  -4, 0.2%, 16%, -9, -6.6, 7, -2
CCc1nnc(NC(=O)CN2CCN(Cc3ccccc3Cl)CC2)s1
  -1, 0.5%, 5%, -6, -2.2, -5, 1
COc1ccc(-c2c(-c3ccc(OCC(=O)NN)cc3O)n[nH]c2C(F)(F)F)cc1
  6, 3.3%, -16%, -8, -2.6, 0, -19
COc1cccc(NC(=O)[C@@H]2CCCN2S(=O)(=O)c2cccc3cccnc23)c1
  0, -1.1%, /, -15, -1.0, 1, 19
CCOc1ccc(CCNC(=O)CS(=O)(=O)Cc2nc(-c3cccc(OC)c3)oc2C)cc1
  /, 1.0%, 2%, -12, 4.7, 0, -9
Cc1cc(=O)n(CC(=O)NCCN2CCOCC2)c2c1c(C)nn2-c1ccccc1
  1, 1.7%, 10%, -5, -1.4, 2, -28
CC(C)(C)CC(C)(C)NC1=CC(=O)OC12CCCCC2
  14, -0.6%[38.3 µM], 12%, -2, -0.8, 5, -1
O=C(NCCS(=O)(=O)NCCCc1ccccc1)c1ccccc1
  6, 5.6%, /, -7, -2.5, -3, 14
COc1cc(CNC2CCCC2)cc(Br)c1OCC(=O)Nc1ccccc1C
  -1, 1.0%, 10%, -11, -9.9, 4, 8
COc1ccccc1N1CCN(CCCN2C(=O)C3CCCN3C2=O)CC1 (stereo not drawn)
  6, -2.0%, /, -10, 1.4, 2, /
COc1ccc(OC)c(-n2cnnn2)c1
  -12, 0.6%, 8%, -14, -3.4, 2, -12
COc1ccc(C(=O)O)cc1S(=O)(=O)NC(C)(C)C
  7, 0.8%, 22%, 4, 0.1, 1, 3
COc1ccc(S(=O)(=O)N2CCC(C(=O)N[C@@H](C)C(=O)NCc3ccc(F)cc3)CC2)cc1
  1, 1.2%, 5%, -5, -2.1, 2, 7
O=C(c1ccc2c(c1)OCCO2)N1CCN(c2ccc(C(F)(F)F)cn2)CC1
  3, -0.5%, /, 3, 2.5, -1, /
CCOc1ccccc1CNC(=O)c1ccc(NC(=O)C2=C(C)OCCS2)cc1
  -17, -1.6%, 11%, -4, -0.1, -9, 0
Cc1ccc(S(=O)(=O)N2CCN(C(=O)CSc3cc(C)ccc3C)CC2)c(C)c1
  -5, -2.3%, -27%, -10, -1.9, 17, 22
Cc1sc2ncnc(NCCc3ccc(S(N)(=O)=O)cc3)c2c1C
  -12, 2.0%, 22%, -8, 7.4, -2, 6
Cc1cc(C(=O)NCCc2ccc(Cl)cc2)c2ccccc2n1
  15, 2.2%, 15%, -10, -4.1, 8, 14
CN1CCN(NC(=O)c2cc(-c3ccc(Cl)s3)nc3ccccc23)CC1
  -10, -0.2%, -27%, -6, -8.3, 0, 5
Cc1ccc(C(=O)CC(=O)c2ccc(C(C)(C)C)cc2)cc1
  -13, ?, 1%, -4, -2.9, 21, -12

Structures above with a Cl atom (3):
Values run as follows: CtBP-E1A inh, PINK1 modulator, Sfp inh, D2 potentiator, D2 agonist, Six1-Eya2 blk, TRPV1 potentiator
CCc1nnc(NC(=O)CN2CCN(Cc3ccccc3Cl)CC2)s1
  -1, 0.5%, 5%, -6, -2.2, -5, 1
Cc1cc(C(=O)NCCc2ccc(Cl)cc2)c2ccccc2n1
  15, 2.2%, 15%, -10, -4.1, 8, 14
CN1CCN(NC(=O)c2cc(-c3ccc(Cl)s3)nc3ccccc23)CC1
  -10, -0.2%, -27%, -6, -8.3, 0, 5

Next part
Values run as follows: CtBP-E1A inh, PINK1 modulator, Sfp inh, D2 potentiator, D2 agonist, Six1-Eya2 blk, TRPV1 potentiator
C=CCCO[C@@H]1O[C@@H](C)[C@H](O)C[C@H]1O
  10, -0.4%, /, -5, -2.5, 6, -5
CCCOc1ccc(N2C(=O)CC(N3CCN(c4ccccc4F)CC3)C2=O)cc1 (stereo not drawn)
  8, 13%[38.3 µM], 15%, -11, -3.0, 0, -9
CSc1c(C#N)c(N)nc2sc(C(=O)c3ccccc3)c(N)c12
  -1, ?, ?, 0, -1.4, -7, 5
N#Cc1c(NC(=O)CSc2ccccn2)oc(-c2ccccc2)c1-c1ccccc1
  -12, 6.5%, 19%, 6, -2.1, -13, -6
COc1cccc(-c2cc3c(=O)n(-c4ccccc4)c(=S)[nH]c3s2)c1
  3, 0.5%, -3%, -24, -0.4, -7, 22
CN(C(=O)/C=C/c1cnc2ccccc2c1)C1CCCCC1
  0, -1.0%, -14%, -1, -1.1, 3, -9
Cc1ccc(S(=O)(=O)NCCC(=O)NNC(=O)c2ccccc2Cl)cc1C
  11, 1.1%, /, ?, -2.0, -1, 24
Cc1ccc(S(=O)(=O)C2(C(=O)Nc3cccnc3)CC2)cc1
  7, 1.4%, 16%, -7, 2.7, 1, 12
COc1ccccc1CC(=O)O/N=C(\N)c1ccccn1
  /, 1.4%, -3%, -14, -1.5, 6, /
CC(C)N(C(=O)CSc1nnc(CNc2ccc(F)cc2)o1)C(C)C
  17, -1.1%, 9%, 8, 2.1, 1, 4
Cn1c(=O)c2c(nc(Br)n2CC(=O)C23CC4CC(CC(C4)C2)C3)n(C)c1=O
  -15, -3.6%, ?, -7, 0.7, 6, 12
Cc1ccccc1C(=O)N1CCN(c2ccc(NC(=S)NC(=O)c3cccs3)cc2)CC1
  /, 1.3%, 6%, -18, -17, -20, 4
CS(=O)(=O)N(CC(=O)O)c1ccc2c(c1)OCO2
  14, 5.9%, 11%, 0, 0.0, 8, 18
O=C(COc1ccc2ccccc2c1Br)N1CCCC1
  2, 1.5%, 6%, -6, -1.0, 4, 2
O=C(Nc1ccc(Cl)cc1F)c1ccc2c(c1)C(=O)N(Cc1ccncc1)C2=O
  -18, 3.7%, /, -4, -0.3, -2, /
COC(=O)C1=C(C)NC(=O)CC1c1cc2c(cc1Br)OCO2 (stereo not drawn)
  -2, 1.7%, 5%, -7, -2.0, -3, -26
O=C(NCC(c1cccs1)N1CCOCC1)c1cc(Cl)ccc1[N+](=O)[O-] (stereo not drawn)
  -7, 11%, /, -2, -2.2, -3, 19
COc1ccc(C(=O)Nc2cccnc2)cc1S(=O)(=O)N1CCOCC1
  2, /, 15%, -10, -0.8, 0, 0
COc1ccccc1C(=O)NCCC(=O)N1CCCCCCC1
  2, -0.2%, /, -10, -0.2, 5, -2
C/C(=N/NC(N)=S)c1ccccc1[N+](=O)[O-]
  2, -0.3%, 22µM*, -21, -5.5, 3, 4
Cc1ccccc1Oc1ccc(Oc2ccccc2C)nn1
  0, /, -6%, -24, -1.8, 5, 8
CC(C)COC(=O)/C(C#N)=C/c1c[nH]c2ccccc12
  22, 8.3%, 9%, 1, -1.4, -2, -8
COc1ccc(CN2CCC(CO)(Cc3ccccc3C(F)(F)F)CC2)c(F)c1
  2, 9.3%, 15%, -18, -2.1, 1, -6
CN(C(=O)CSc1nnc(N)s1)c1c(N)n(Cc2ccccc2)c(=O)[nH]c1=O
  11, -0.1%, ?, 2, 2.2, 9, 1
CN(C(=O)CS(=O)(=O)c1cn(CC(=O)N2CCOCC2)c2ccccc12)c1ccccc1
  -24, -0.8%, 14%, 4, 3.8, 13, ?
Cc1cccc(CN2CCN(C3CN(C4CCCCC4)S(=O)(=O)C3)CC2)c1 (stereo not drawn)
  -23, -0.4%, /, -15, -5.3, 6, /
COc1cc(C(=O)NNC(=O)CCOc2cccc(Br)c2)cc(OC)c1OC
  7, 0.4%, /, -16, -4.9, -9, 13
c1ccc2[nH]c(NCCN3CCOCC3)nc2c1
  8, -1.2%, 4%, -9, -2.8, 6, -18
O=c1c2ccccc2c2c(O)nc(-c3ccccc3)n2n1Cc1ccccc1
  11, 3.0%, 2%, 3, -1.3, 10, -5
O=C(c1ccc([N+](=O)[O-])cc1)n1nc(-c2ccccc2)nc1NCc1ccccc1
  -2, -1.4%, -2%, -10, -7.5, -1, 20
COC(=O)Cc1csc(N)n1
  0&-8, 0.2%&-0.7%, 23%&7%, -7&3, -2.4&-1.7, -2&2, -3&-9
COc1ccccc1N=Cc1nc(-c2ccccc2)oc1OC(C)=O
  2, -2.3%, -10%, 5, -1.1, 2, -5
O=C1C(Nc2ccccc2)=CC(c2ccc(O)cc2)N1c1ccccc1 (stereo not drawn)
  -18, 2.6%, ?, -6, -2.4, -3, 11
CCCCNC(=O)COC(=O)c1c2c(nc3ccccc13)CCC2
  -2, -0.8%, 3%, 17, 5.2, -10, 3
COc1cc(-c2cc(C(=O)Nc3ccc(S(=O)(=O)Nc4ncccn4)cc3)c3ccccc3n2)cc(OC)c1OC
  -5, 0.7%, 11%, -2, -0.4, 1, /

Given field by field: three of the compounds above
COc1cc(C(=O)NNC(=O)CCOc2cccc(Br)c2)cc(OC)c1OC
  CtBP-E1A inh = 7
  PINK1 modulator = 0.4%
  Sfp inh = /
  D2 potentiator = -16
  D2 agonist = -4.9
  Six1-Eya2 blk = -9
  TRPV1 potentiator = 13

c1ccc2[nH]c(NCCN3CCOCC3)nc2c1
  CtBP-E1A inh = 8
  PINK1 modulator = -1.2%
  Sfp inh = 4%
  D2 potentiator = -9
  D2 agonist = -2.8
  Six1-Eya2 blk = 6
  TRPV1 potentiator = -18

O=c1c2ccccc2c2c(O)nc(-c3ccccc3)n2n1Cc1ccccc1
  CtBP-E1A inh = 11
  PINK1 modulator = 3.0%
  Sfp inh = 2%
  D2 potentiator = 3
  D2 agonist = -1.3
  Six1-Eya2 blk = 10
  TRPV1 potentiator = -5

Bioassay records (PubChem)
